gsp antagonist = gsp mutant antagonism; gsp-mutant cells, cAMP HTRF, 30 min; control for the full effect not named in the record; Potency, µM (series often up to 76.9 µM), inactives show top-dose activity change, negative = inhibition, most hits filed as inhibitors; 340,000 tested, 0.4% active; AID 624288; active = falling curve of any shape with a large fitted effect; inconclusive = falling curve, mostly with a smaller effect; inactive = flat or rising curve; cell line not stated here;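 also: intracellular cAMP measured with PDE inhibitor Ro 20-1724 present during compound exposure; potency is read from the fitted curve at half-maximal effect; % is scaled to controls: 0 for no effect and ±100 for the full control effect; nearly all actives have a fitted effect of over 65% in size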
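Measurement of cellular cAMP by homogeneous time-resolved fluorescence following a 30 min compound exposure at 37C. The PDE inhibitor […] was present throughout; the assay buffer was DPBS with 0.05% BSA and 0.005% Tween 20.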
gsp ag = activates gsp, the McCune-Albright syndrome mutation | Potency, µM (highest dose often 76.9 µM), without a hit: top-dose activation (cAMP increase), hits mostly activators | 340,000 tested, 0.13% active | gsp mutant cells, cAMP HTRF, 30 min; control for the full effect not named in the record; active = well fitted activation curve with a large enough effect; inconclusive = small, poorly fitted or top-dose-only effect, or another doubt; inactive = no such curve, though single readings can be large or run the other way; cell line not stated here;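 also: phosphodiesterase inhibitor Ro 20-1724 added with compounds to block cAMP breakdown; potency is read from the fitted curve at half-maximal effect; nearly all actives have a fitted effect of over 60% in size; about a fifth of the inactives were tested at one dose only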
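Cells in DMEM/10% FBS with G418 were pretreated with compounds in DMSO plus […] (300 uM stock) for 30 min at 37C. cAMP was measured by HTRF (cAMP-d2 plus anti-cAMP antibody-K) after 30 min at room temperature.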
CtBP-E1A blk = CtBP/E1A binding inhibition; AID 651724; 340,000 tested, 0.49% active; activity change, % (concentration not given with the values); AlphaScreen GST-E1A/His-CtBP binding, 1536-well; stronger effect = lower value; control for the full effect not named in the record; in the data active means activity change below about -65%; inconclusive means about -30% to -65%; inactive means above about -30%; also: % is scaled to controls: 0 for no effect and ±100 for the full control effect
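AlphaScreen with 125 nM GST-E1A and 125 nM His-CtBP (5X stocks) in Tris pH 8.0, 300 mM NaCl, BSA, Tween 20, TCEP. Compounds preincubated 2 h at 37 deg C, then glutathione donor/nickel acceptor beads added for 1 h at 37 deg C in dark.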
Menin MLL FP FL = menin-MLL binding inhibition, fluorescein peptide. FP activity change, % at 61.4 µM. Fluorescence polarization, fluorescein-MLL peptide displacement from menin. AID 1766. 290,000 tested, under 10 active; inconclusive = falling polarisation curve, or a change in total fluorescence; inactive = total fluorescence flat and polarisation flat or rising; no compound was filed as active; the % refers to the polarisation; negative = inhibition;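 also: % of control where 0% means no effect; inhibitors lower the polarisation; unlabelled MLL peptide was the positive control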
TRPV1 potentiator = enhances activation of the human vanilloid receptor TRPV1; TRPV1-expressing cells, Fluo-8 calcium influx, capsaicin EC20 potentiation; host cell line not named in the record; control for the full effect not named in the record; potentiation, % at 8.33 µM; 320,000 tested, 0.02% active; AID 540277; active means potentiation above 80%; inconclusive means 30% to 80%; inactive means below 30%; also: 0% is about no effect
Target sequence (Q8NER1 whole entry, looked up): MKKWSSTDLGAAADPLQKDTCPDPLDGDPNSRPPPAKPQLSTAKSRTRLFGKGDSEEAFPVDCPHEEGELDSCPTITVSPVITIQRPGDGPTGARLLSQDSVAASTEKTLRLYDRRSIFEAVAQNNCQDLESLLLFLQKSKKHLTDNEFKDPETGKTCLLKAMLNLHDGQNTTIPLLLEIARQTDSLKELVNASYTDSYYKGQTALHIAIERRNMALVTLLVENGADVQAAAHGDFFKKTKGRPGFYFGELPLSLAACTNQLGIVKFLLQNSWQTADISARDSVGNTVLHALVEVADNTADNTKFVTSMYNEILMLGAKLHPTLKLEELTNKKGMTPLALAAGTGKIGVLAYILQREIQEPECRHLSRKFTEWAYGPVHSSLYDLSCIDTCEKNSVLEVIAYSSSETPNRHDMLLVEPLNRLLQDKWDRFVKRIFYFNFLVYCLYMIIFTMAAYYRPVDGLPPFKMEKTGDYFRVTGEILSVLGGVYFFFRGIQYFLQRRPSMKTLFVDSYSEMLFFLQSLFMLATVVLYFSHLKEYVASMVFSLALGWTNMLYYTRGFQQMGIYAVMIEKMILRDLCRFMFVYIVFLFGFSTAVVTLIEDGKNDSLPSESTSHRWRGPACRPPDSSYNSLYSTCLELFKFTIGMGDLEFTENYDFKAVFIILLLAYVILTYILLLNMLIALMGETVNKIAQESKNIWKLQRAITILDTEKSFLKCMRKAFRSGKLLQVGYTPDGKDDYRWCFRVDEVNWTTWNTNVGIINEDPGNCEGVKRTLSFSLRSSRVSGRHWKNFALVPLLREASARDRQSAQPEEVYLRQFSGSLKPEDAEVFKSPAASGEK
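Fluo-8 calcium influx in TRPV1-expressing cells, kinetic read (ex 480/em 520 nm). Compound added and read 3 min for agonist activity, followed by capsaicin at EC20 final and 2 min further read for enhancement.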
Sfp inh = blocks B. subtilis Sfp PPTase activity; Biochemical Sfp PPTase activity, qHTS; AID 1490; Potency, µM, for inactives: max response, negative = inhibition, hits mostly inhibitors; 310,000 tested, 3.5% active; Q9F4F7; active = well fitted inhibition curve with a large enough effect; inconclusive = small, poorly fitted or top-dose-only effect, or another doubt; inactive = no such curve, though single readings can be large or run the other way;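 also: the enzyme is Sfp with the accession as filed and its product quenches rhodamine fluorescence; potency is read from the fitted curve at half-maximal effect; 0% = enzyme reaction without inhibitor and -100% = no enzyme wells; top concentration of the series not given in the record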
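After 15 min at room temperature with compound, 15 nM Sfp received 5 uM rhodamine-CoA plus 12.5 uM BHQ-2-ybbR (50 mM Hepes pH 7.6, 10 mM MgCl2). Rate came from the fluorescence difference over 30 min, ex 525/em 598 nm.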
ClpP mod = qHTS Assay for Activators of ClpP. ATP-dependent Clp protease proteolytic subunit (Bacillus subtilis (strain 168)), P80244. purified B. subtilis ClpP, FRET peptide cleavage, 20 min. Potency, µM (series often up to 57.5 µM), for inactives: at the highest dose activity change, negative = active. 340,000 tested, 1.9% active; active = well fitted falling curve with a large enough effect; inconclusive = small, poorly fitted or top-dose-only effect; inactive = no such curve, though single readings can be large or run the other way; also: potency is read from the fitted curve at half-maximal effect; the source files actives as falling curves though it sought activators and does not explain the sign; nearly all actives have a fitted effect of over 65% in size; many hits overshoot -100%
Target sequence (P80244 whole entry, looked up): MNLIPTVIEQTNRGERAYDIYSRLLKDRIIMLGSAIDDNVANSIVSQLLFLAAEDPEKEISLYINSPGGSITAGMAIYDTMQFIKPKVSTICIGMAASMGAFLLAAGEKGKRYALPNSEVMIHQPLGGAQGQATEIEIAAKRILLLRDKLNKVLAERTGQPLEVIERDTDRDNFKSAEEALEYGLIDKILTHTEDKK
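Purified B. subtilis ClpP, 10 microg/mL final in Tris/HCl pH8 with KCl, BSA, glycerol and Tween-20, cleaved an Abz/nitrotyrosine-quenched decapeptide. Fluorescence (ex 320, em 430) was read at 0 and 20 min at room temperature. Delta was normalized to 5.8 microM ADEP and DMSO/no-enzyme controls.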
* = called active by the depositor; ? = inconclusive; . = no result given; ! = a repeat was not active; [ ] = dose if it differs, or a comment.

SMILES | gsp antagonist | gsp ag | CtBP-E1A blk | Menin MLL FP FL | TRPV1 potentiator | Sfp inh | ClpP mod
COc1ccc(CN2CCNC(=O)C2CC(=O)NCCc2c[nH]c3ccccc23)c(OC)c1 (configuration not stated) | 12% | -1%[15.4 µM] | 1 | 1.5 | 6 | 10% | 0.5%
O=C(Cc1ccccc1)NC(Nc1ccccc1)C(Cl)(Cl)Cl (configuration not stated) | 5%[15.4 µM] | -8% | 19 | 2.5 | -7 | 22% | -0.9%
O=C(NC(=S)Nc1nc(-c2cccc([N+](=O)[O-])c2)cs1)c1ccccc1Cl | 6% | -51%[inhibitor] | 2 | 2.5 | ? | -28% | .
Cc1ccc(NC(=O)CN(C)C2CCCCC2)cc1Br | 3% | 20% | 10 | -4.3 | -21 | 56µM* | .
Cc1c(O)ccc2c(O)c(NC(=O)c3ccc4c(c3)CCC(C)(C)O4)c(=O)oc12 | -17% | 1% | . | 3.2 | -2 | 39%[activator] | 0.0%
CCCNC(=O)c1n[nH]c2c1CC(C(C)(C)CC)CC2 (configuration not stated) | -11% | . | 6 | . | -48 | . | 1.7%
CCc1ccc2[nH]c(=O)c(C(c3nnnn3CCOC)N3CCN(c4ccccc4)CC3)cc2c1 (configuration not stated) | -7% | 8% | -3 | -1.4 | 4 | 32µM* | ?
O=C(C(c1ccccc1)c1ccccc1)N1CCN(Cc2ccco2)CC1 | -10% | 5% | -6 | 0.1 | 6 | -28% | -2.6%
Cc1c(C(=O)OCC(C)C)[nH]c2c1C(=O)CC(c1cccs1)C2 (configuration not stated) | 39%[activator] | 15% | -2 | -0.1 | -2 | 12% | 2.8%
CCOC(=O)CC1=C(C(=O)OCC)C(c2cccs2)C(C#N)=C(N)O1 (configuration not stated) | -3% | 38% | -2 | 0.2 | -1 | -7% | -7.0%
O=S(=O)(c1cccc(S(=O)(=O)N2CCN(c3ncccn3)CC2)c1)N1CCOCC1 | -1% | -1% | 1 | 1.2 | -2 | 1% | -29%
O=S1(=O)N=C(N/N=C/c2ccccn2)c2ccccc21 | 7% | ? | -81* | 1.2 | 12 | 6% | -7.5%
COc1ccc2[nH]c(=O)c(CN(C3CCCCC3)C(c3nnnn3Cc3ccco3)C(C)C)cc2c1 (configuration not stated) | -16% | -2% | 0 | ? | -11 | 3.2µM* | -28%
Cc1ccc(S(=O)(=O)c2c(C)cc(C)nc2Cl)cc1 | 9% | -9% | 4 | 3.7 | -7 | 3% | -0.6%
COc1ccc(N(S(=O)(=O)c2ccccc2)S(=O)(=O)c2ccccc2)c(N)c1 | -12% | . | 0 | . | ? | . | -0.3%
O=c1[nH]c(C2CCCN(S(=O)(=O)c3ccccc3)C2)nc2c1nnn2Cc1ccccc1F (configuration not stated) | 2% | ? | 4 | -2.2 | 19 | -27% | 0.4%
c1ccc(-c2nnc(OCc3cccnc3)c3ccccc23)cc1 | ? | 3%[15.4 µM] | -10 | 0.4 | 6 | 15% | .
Cc1ccc(NC(=O)c2ccco2)c(NC(=O)c2ccccc2C)c1 | 3% | -3%[15.4 µM] | 0 | 0.0 | 1 | 14% | -0.2%
Cc1occc1-c1nnc(SCC(=O)c2ccc(F)cc2)o1 | -1% | -5% | -7 | 7.4 | -8 | -1% | 0.3%
O=C(NC1CCCCC1)NC1CCN(S(=O)(=O)c2ccc3c(c2)OCCO3)CC1 | 0% | 3% | 0 | 2.7 | 4 | -1% | -1.8%

3 compounds already listed, arranged by their value in Menin MLL FP FL, smallest number first:
compound	Menin MLL FP FL
Cc1ccc(NC(=O)c2ccco2)c(NC(=O)c2ccccc2C)c1	0.0
O=S(=O)(c1cccc(S(=O)(=O)N2CCN(c3ncccn3)CC2)c1)N1CCOCC1	1.2
Cc1ccc(S(=O)(=O)c2c(C)cc(C)nc2Cl)cc1	3.7

The results go on:
SMILES | gsp antagonist | gsp ag | CtBP-E1A blk | Menin MLL FP FL | TRPV1 potentiator | Sfp inh | ClpP mod
CCS(=O)(=O)c1ccc2oc(SCC(=O)c3ccco3)nc2c1 | -1% | ? | 0 | -1.1 | 13 | 11% | 1.0%
CSc1ncnc2[nH]ncc12 | 7% | 15% | 3 | . | . | . | .
Cc1cccc(N2CCN(S(=O)(=O)c3ccc4[nH]c(=O)ccc4c3)CC2)c1C | -19% | ? | -4 | 2.3 | -6 | -6% | 0.6%
Clc1ccc(C2=NN(c3ccccc3)C(c3ccco3)C2)cc1 (configuration not stated) | 2% | ? | 35 | ? | 6 | 28µM* | .
Cc1ccccc1-c1nc(CN2CCCC(C(=O)NCc3cccnc3)C2)c(C)o1 (configuration not stated) | 0% | 24% | -4 | 3.0 | 3 | -7% | -2.1%
COc1ccc(C(=O)CC(C(=O)O)c2ccc(OC)c(OC)c2)cc1OC (configuration not stated) | . | -2% | 2 | . | . | . | -2.6%
O=C(CNS(=O)(=O)c1ccccc1)OCC(=O)c1ccc(Br)cc1 | -13% | 9% | -8 | 4.2 | 2 | -3% | .
COc1ccc(NC(=O)NN2CCN(C)CC2)cc1OC | 3% | 0% | 11 | . | 19 | 6% | -0.7%
CC(NC(=O)COC(=O)CCN1C(=O)C2CC=CCC2C1=O)c1ccc(Br)cc1 (configuration not stated) | -4% | -4% | -2 | . | -4 | . | 0.4%
COc1ccc(-n2nc3c(=O)[nH][nH]c3cc2=O)cc1 | -6% | -25% | ? | -3.9 | -2 | -9% | .
CCCNC(=O)CN1C(=O)NC2(CCCc3cc(OC)ccc32)C1=O (configuration not stated) | 3% | -25% | -2 | 2.5 | -1 | 7% | -0.3%
O=C(CN1CCCC1)Nc1sc2c(c1C(=O)Nc1ccc(Br)cc1)CCC2 | 3% | -54%[15.4 µM] | -9 | -0.1 | -12 | 13% | -1.9%
CCN1c2ccccc2S(=O)(=O)c2ccccc21 | 20% | -11%[15.4 µM] | 3 | 11 | -6 | 18% | .
NC(=O)c1ccc(OCC(F)(F)C(F)(F)C(F)(F)C(F)(F)C(F)(F)C(F)F)cc1 | 5% | ? | 14 | 1.0 | -6 | 28% | 0.3%
COc1ccc2nc(NC(=O)CSc3nc(C)cc(C)n3)sc2c1 | -18% | -22% | -18 | 3.1 | 8 | -5% | -4.8%
Cc1c(CN2CCCC(CO)(Cc3cccc(Cl)c3)C2)cnn1C (configuration not stated) | 3% | ? | 3 | 1.4 | 1 | -14% | 0.5%
COc1ccc(OCC(=O)N/N=C/c2ccc(O[C@@H]3O[C@H](CO)[C@@H](O)[C@H](O)[C@H]3O)cc2)cc1 | 11% | -36%[inhibitor] | 4 | -0.5 | 5 | 15% | 0.3%
Cc1ccc(/C=C2\CC(C)CC3=C2NC(=S)NC3c2ccc(C)cc2)cc1 (configuration not stated) | -2% | 0%[15.4 µM] | -3 | 3.5 | 24 | ? | .
Cc1noc(C)c1COc1ccc(C(=O)OCC(=O)N2CC(=O)Nc3ccccc32)cc1 | -14% | -30%[inhibitor] | -9 | -4.2 | -2 | 0% | -1.8%
COC(=O)c1ccc(NC(=S)NCCC2=CCCCC2)cc1 | -3% | -2% | 4 | -0.8 | 3 | 14% | -1.0%
Cn1c(=O)cc(OCC(=O)NCc2ccccn2)c2ccccc21 | 8% | ? | 0 | 5.8 | . | -3% | -18%
CCCn1c(COc2ccc(C(=O)O)cc2)nc2ccccc21 | -16% | -9% | 6 | 1.4 | 5 | 9% | -1.4%
CCOC(=O)c1[nH]c(COC(=O)C2CC(=O)N(Cc3ccccc3)C2)c(C(=O)OCC)c1C (configuration not stated) | -14% | 5% | -5 | 6.8 | -6 | -5% | 0.1%
COCCN(CCOC)S(=O)(=O)c1ccc(C(=O)Nc2ccc(S(=O)(=O)Nc3nccc(C)n3)cc2)cc1 | 2% | 14% | . | 0.2 | 2 | 2% | -2.5%
Cc1cc[n+](CC(=O)c2ccc(NC(=O)c3ccccc3)cc2)cc1 | 3% | -12% | -1 | -2.7 | 4 | 11% | -0.3%
Cc1ccccc1NC(=O)CSc1ccsc1[N+](=O)[O-] | 15% | 17% | -4 | 10 | -13 | -10% | 2.2%
Cc1cc(C)n(-c2ncnc3ccccc23)n1 | 7% | ? | 8 | 1.2 | 1 | 17% | 1.6%
COc1ccc(NC(=O)N(C)C[C@H]2Oc3ccc(NC(=O)C4CCCCC4)cc3C(=O)N([C@H](C)CO)C[C@@H]2C)cc1 | 4% | . | 7 | . | . | . | -0.5%
COC(=O)c1cc(OC)c(OC)cc1NC(=O)c1ccc(OC)c(OC)c1 | -18% | 9% | -27 | 3.4 | -3 | 5% | .
CCN(CC)CCOCCOC(=O)C1(c2ccccc2)CCCC1 | -6% | . | -19 | 0.4 | . | 50µM*! | -2.1%
O=C(Nc1ccc(-n2nncc2-c2ccco2)cc1)c1ccc(F)cc1 | -22% | -20% | -16 | 4.6 | -26 | 2% | -4.4%
Cc1ccc(NC(=O)c2ncn(CCCN3CCN(c4ncccn4)CC3)n2)cc1C | -2% | . | -18 | . | . | . | -0.9%
O=C(COC(=O)c1ccccn1)NCc1cccs1 | 14% | -11%[15.4 µM] | -19 | . | 5 | . | .
Cc1ccc(S(=O)(=O)N(CC(=O)Nc2ccccc2C(=O)O)c2ccccc2C)cc1 | -25% | -27% | -21 | -1.8 | ? | 23% | .
O=C(NNS(=O)(=O)c1ccc(Cl)cc1)c1ccc(S(=O)(=O)N2CCCCC2)cc1 | 4% | -12% | 0 | 0.4 | -1 | -7% | 1.3%
Cc1cc(/C=N/n2cnnc2)c(C)n1-c1ccc(OCc2ccc(Cl)cc2Cl)cc1 | 4% | -2% | -17 | 0.0 | -4 | 35µM* | ?
CCOC(=O)CNS(=O)(=O)CCN1C(=O)c2ccccc2C1=O | 3% | 21% | 0 | -0.1 | 6 | 15% | 3.3%
Cc1cc2c(cc1S(=O)(=O)N1CCN(c3ccccc3)CC1)OCCN2C | -11% | -23% | -16 | -4.2 | -2 | 7% | 0.2%
COc1cccc(/C=C/C(=O)Nc2cccc(C(C)=O)c2)c1OC | -16% | -60%[inhibitor] | 2 | -0.2 | -16 | 10% | -3.0%
COc1ccc(-c2csc3ncnc(NCCO)c23)cc1 | 4% | -5% | -11 | -2.5 | 2 | 18% | 0.9%

An unsorted share of the library (roughly 5.3% active in at least one column).
